Assay outcomes deposited in PubChem by Southern Research Institute.
Mtb growth: Confirmatory growth inhibition assay against Mycobacterium tuberculosis H37Rv, potency (AID 1949); most inactive calls were filed without a number and no value below 0 was filed; actives 1.6% (n = 100,000); inhibition, % at 10 µg/mL, or IC50 in µg/mL where a hit was titrated;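 active = confirmed in a dose series; inconclusive = about 50% or more but not retested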;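 also: bacteria grown 7 days with compound before Alamar blue readout; 0% = untreated bacteria and 100% = reference antibiotic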
Numbers without * were called inactive; i = inactive; ? = inconclusive.

SMILES	Mtb growth
CC(=O)Nc1c(O)nc(SCC(=O)Nc2ccc(Cl)cc2)[nH]c1=O	i
CC(=O)c1ccc(OC(=O)C(C)(C)C)cc1	i
COc1ccc(OCCOCCNCCO)cc1	i
CC(CCc1ccccc1)NC(=O)c1ccc(N)cc1 (stereo not given)	1%
O=C(Nc1sc2c(c1C(=O)N1CCCCC1)CCCCC2)c1ccccc1Cl	i
O=C(NNC(=S)NCC1CCCO1)c1ccccn1 (stereo not given)	1%
CCOc1cccc(C(=O)N2CCN(c3ccc([N+](=O)[O-])c(NC4CC4)c3)CC2)c1	i
O=C(O)c1ccc(CN2CCOCC2)o1	i
Cc1cccc(N2CCN(S(=O)(=O)c3ccc(Br)s3)CC2)c1C	11%
COc1ccc(S(=O)(=O)N2CCCC(C(N)=O)C2)cc1Cl (stereo not given)	i
COc1cccc(OCC(O)CN2C(C)CCCC2C)c1 (stereo not given)	i
O=C(NCCCN1CCOCC1)c1ccc2nc(-c3ccccc3)c(-c3ccccc3)nc2c1	19%
O=C(Nc1ccc(-c2cc3ccccc3oc2=O)cc1)c1cncc(Br)c1	i
CCOc1cc([N+](=O)[O-])ccc1NC(=O)C1CC(=O)NC(=Nc2ccc(C)cc2)S1 (stereo not given)	3%
Cc1cccc(OCCCSc2nc3ccc(C)cc3[nH]2)c1	?
COC(=O)c1c(NC(=S)N(C)Cc2c(C)nn(C)c2C)sc2c1CCC2	i
CN(Cc1ccccc1)S(=O)(=O)c1ccc(NC(=S)NC(=O)c2cccs2)cc1	i
O=C(Nc1ccccc1N1CCCC1)c1c(F)c(F)c(F)c(F)c1F	i
CCN1CCN(C(=O)CN(CCc2ccccc2)S(C)(=O)=O)CC1	i
CCC(=O)Oc1ccc2c(=O)c(-c3nc4ccccc4s3)c(C(F)(F)F)oc2c1C	10%
O=C(CSc1ccc(Br)cc1)Nc1cc(C(F)(F)F)ccc1Cl	i
CCS(=O)(=O)N1CCN(c2ccc([N+](=O)[O-])c(NC)c2)CC1	i
O=C(Nc1ccc(F)c(Cl)c1)C1CCCC1	i
CCOc1ccc(C(=O)Nc2nnc(Cc3ccc(OC)cc3)s2)cc1	i
COC(=O)c1c(NC(=O)CSc2cc(C)c3ccccc3n2)sc(C)c1C	i
O=C(NCc1ccc2c(c1)OCO2)c1ccc2c(c1)C(=O)N(CC1CCCO1)C2=O (stereo not given)	i
COc1ccccc1-c1noc(-c2ccco2)n1	i
Cc1c(Nc2nc3ccccc3nc2N2CCN(c3ccccc3)CC2)c(=O)n(-c2ccccc2)n1C	2%
O=C(NC(=S)Nc1ccc(C(=O)O)c(Cl)c1)c1ccc(F)cc1	i
O=C(NC(=S)NC1CCS(=O)(=O)C1)c1ccccc1F (stereo not given)	1%

Quoted at random: 7 compounds from above.
SMILES	Mtb growth
Cc1cccc(OCCCSc2nc3ccc(C)cc3[nH]2)c1	?
O=C(O)c1ccc(CN2CCOCC2)o1	i
CCC(=O)Oc1ccc2c(=O)c(-c3nc4ccccc4s3)c(C(F)(F)F)oc2c1C	10%
CC(=O)c1ccc(OC(=O)C(C)(C)C)cc1	i
O=C(NCCCN1CCOCC1)c1ccc2nc(-c3ccccc3)c(-c3ccccc3)nc2c1	19%
O=C(CSc1ccc(Br)cc1)Nc1cc(C(F)(F)F)ccc1Cl	i
CN(Cc1ccccc1)S(=O)(=O)c1ccc(NC(=S)NC(=O)c2cccs2)cc1	i

(further entries)
SMILES	Mtb growth
Cc1ccc(Nc2nc(=O)c3cccnc3s2)cc1	i
O=C(Nc1ccc(N2CCCCC2)cc1)c1sc2ccccc2c1Cl	i
CCn1c(COc2ccccc2Cl)nnc1SCC(=O)Nc1ccccc1Cl	i
COc1cc(C=C2C(=O)NC(=O)NC2=O)ccc1OC(=O)c1ccco1	10%
O=C(Cc1cccc2ccccc12)NCCCNC(=O)Cc1cccc2ccccc12	i
COc1cccc(C(=O)Nc2cccc(N3C(=O)CCC3=O)c2)c1	i
C=CCN(CC=C)C(=O)c1cc2c(n(-c3ccc(Cl)c(Cl)c3)c1=O)CC(C)(C)CC2=O	i
O=C(NCc1ccccc1)c1cccc(NC(=S)NCc2ccc(Cl)cc2)c1	i
COc1cccc(NC(=S)Nc2ccccc2Oc2ccccc2)c1	i
Cc1ccccc1-c1nc(-c2cccc(C(F)(F)F)c2)no1	9%
O=c1nc(Nc2ccc(OCc3ccccc3)cc2)sc2ncccc12	7%
CCOC(=O)C12CC3CC(CC(C3)C1)C2	13%
COC(=O)C1=CN(C2CC2)C=C(C(=O)OC)C1c1ccsc1	i
O=C(O)c1cc(NC(=O)c2ccc(Cl)cc2)cc(C(=O)O)c1	i
CC(C)NC(=S)Nc1cccc(C(=O)O)c1	i
Cc1ccccc1-c1cc(C(=O)N2CCCC2)c2ccccc2n1	i
O=C(CCC(=O)Nc1ccccc1F)Nc1ccccc1F	i
CCOc1ccc(NS(=O)(=O)c2ccc(NC(=O)Cc3ccccc3[N+](=O)[O-])cc2)cc1	i
COC(=O)c1ccc(NC(=O)CCN2CCCCC2)cc1	i
CC(=O)c1ccc(-n2c(-c3ccncc3)n[nH]c2=S)cc1	i
O=C(NC1CCC(CC2CCC(NC(=O)c3ccncc3)CC2)CC1)c1ccncc1 (stereo not given)	i
COc1ccc(CNc2ccc3ccccc3c2)cc1OC	2%
O=C(COc1ccc(Cl)cc1Cl)Nc1nc(OCc2ccccc2)cs1	i
O=C(Nc1ccc2c(c1)OCO2)c1ccc(S(=O)(=O)N2CCOCC2)cc1	i
Cc1ccc(-c2csc3ncn(C(C)C(=O)OC4CCCCC4)c(=O)c23)cc1C (stereo not given)	1.5µg/mL*
COc1ccc(C2(C(=O)Nc3ccc(C)cc3)CCCCC2)cc1OC	i
CCOc1cccc(N2C(=O)CC(N3CCN(c4ccccc4O)CC3)C2=O)c1 (stereo not given)	i
N#Cc1cc2c(nc1SCCOc1ccccc1)CCCCC2	4%
O=C(Nc1nccs1)c1ccc(COc2ccccc2Br)o1	i
CC(C)Oc1cccc(C(=O)Nc2cccc(F)c2)c1	i
CCCOc1ccc(NC(=O)Nc2cccc(Cl)c2)cc1	i
Cc1cc(Br)c(NC(=O)CSc2nnc(COc3ccccc3)n2-c2ccccc2)cc1C	i
COc1ccc(C)cc1S(=O)(=O)N(C)CC(=O)Nc1ccc(F)c(Cl)c1	i
O=C(Cc1ccc(Cl)cc1)Nc1nc(-c2ccc(Br)cc2)cs1	i
COc1ccc(C)cc1N(CC(=O)N1CCN(c2cc(Cl)ccc2C)CC1)S(C)(=O)=O	i
COc1cc(NC(=O)c2ccc(-c3cccc(Cl)c3C)o2)ccc1NC(=O)c1ccco1	3%
CCC(C)c1ccc(OCC(=O)Nc2cc(OC)c(Cl)cc2OC)cc1 (stereo not given)	5%
Fc1ccccc1NC(=S)NCCc1ccccn1	i
CCC(=O)Nc1ccc(Cl)c(NC(=S)NC(=O)c2ccco2)c1	i
O=C(COc1ccc(S(=O)(=O)NCc2ccccc2)cc1)N1CCc2ccccc2C1	i
CCOC(=O)c1c(NC(=O)Nc2ccccc2C)sc2c1CC(C)(C)OC2	i
Cc1cccc(NC(=S)NC(=O)c2ccc(Br)o2)c1	?
O=C(Oc1cccc2cccnc12)c1ccco1	0.75µg/mL*
Cc1ccc(NC(=O)C2CCCC2)cc1Cl	i
O=C(Cc1ccccc1)Nc1ccc(Oc2ccc3c(c2)C(=O)NC3=O)cc1	i
CCOC(=O)N1CCN(C(=O)COc2ccc3ccccc3c2Br)CC1	12%
O=C1CCCN1CCCNC(=S)Nc1ccc(S(=O)(=O)Nc2ncccn2)cc1	i
CC(=O)C(c1ccccc1)C1(O)C(=O)N(Cc2ccccc2)c2ccccc21 (stereo not given)	i
COc1cc(C(=O)NCCCN2CCCC2=O)cc(OC)c1OC	1%
CCc1ccc(-c2csc3nc[nH]c(=O)c23)cc1	i
COc1cc(NC(=O)c2cccc(OC(C)=O)c2)c(OC)cc1Cl	i
COc1ccc(-c2cc(C(F)(F)F)nc(S(=O)(=O)CCC(=O)N3CCOCC3)n2)cc1	i
COc1cc(C(C)=O)ccc1OCC(O)CN1CCN(c2ccc(F)cc2)CC1 (stereo not given)	i
CC(=O)N1c2ccccc2NC2=C(C(=O)CC(C)(C)C2)C1c1ccccc1Cl (stereo not given)	i
CCc1ccccc1NC(=O)COc1ccc(S(=O)(=O)NCCc2ccccc2)cc1	1%
Cc1ccc(C)c(NC(=O)C(=O)NC(C)C)c1	i
CC(=O)Nc1ccc(OCc2ccccc2)cc1	i
CC1CN(C(=O)c2ccncc2)CC(C)O1 (stereo not given)	i
COc1ccc(CN2CCCC2C(=O)Nc2ccc(OC)c(OC)c2)cc1OC (stereo not given)	i
CC(C)c1ccccc1NC(=O)C(C)N(c1ccc(Oc2ccccc2)cc1)S(C)(=O)=O (stereo not given)	i
Following part
SMILES	Mtb growth
CCC(CC)C(=O)Nc1cccc(C(=O)Nc2ccccc2C(F)(F)F)c1	i
COc1cccc2cc(C(=O)NCCCn3ccnc3)c(=O)oc12	i
CCOc1ccccc1NC(=O)c1cnn2c(C(F)F)cc(-c3ccc(C)cc3)nc12	i
CCCc1cc(=O)n2[nH]c(-c3ccco3)nc2n1	i
CCn1c(SCC(=O)Nc2nc3ccccc3s2)nnc1-c1ccc(Br)cc1	2%
Cc1ccccc1CNC(=O)CN(c1cccc2ccccc12)S(C)(=O)=O	i
CC1CCN(C(=O)COc2ccccc2F)CC1	i
COc1ccc(C)cc1Cn1c(S(C)(=O)=O)nc2ccccc21	i
CCOc1ccc(CN2CCC(C(=O)N(CCc3ccccc3)Cc3ccccc3)CC2)cc1	i
Cc1cccc(NC(=O)c2cc(NC(=O)c3cccs3)ccc2Cl)n1	2%
CCC(CC)C(=O)Nc1cc([N+](=O)[O-])ccc1OC	i
Cc1sc(NC(=O)CSc2nnc(C(C)NC(=O)c3ccc(Cl)cc3Cl)n2C)nc1-c1ccccc1 (stereo not given)	i
CC(C)CNS(=O)(=O)c1ccc(NC(N)=O)cc1	i
CC(C)COC(=O)c1ccc(NC(=O)COc2cccc(Cl)c2)cc1	15%
C#CCOc1c(Cl)cc(C2C3=C(CC(C)(C)CC3=O)N(C)C3=C2C(=O)CC(C)(C)C3)cc1OCC	i

Exported with bars between the fields: entries from further up
SMILES | Mtb growth
CCOc1ccc(CN2CCC(C(=O)N(CCc3ccccc3)Cc3ccccc3)CC2)cc1 | i
Cc1cccc(NC(=O)c2cc(NC(=O)c3cccs3)ccc2Cl)n1 | 2%
CCC(CC)C(=O)Nc1cc([N+](=O)[O-])ccc1OC | i

A second format for 3 compounds above:
SMILES | Mtb growth
CCOc1cccc(C(=O)N2CCN(c3ccc([N+](=O)[O-])c(NC4CC4)c3)CC2)c1 | i
O=C(O)c1ccc(CN2CCOCC2)o1 | i
Cc1cccc(N2CCN(S(=O)(=O)c3ccc(Br)s3)CC2)c1C | 11%

(cont.)
SMILES	Mtb growth
Cc1c(NC(=O)CN2c3cccc4cccc(c34)S2(=O)=O)c(=O)n(-c2ccccc2)n1C	i
CCOc1c(/C=C/c2[nH]c(=O)[nH]c(=O)c2[N+](=O)[O-])cccc1OC	i
COc1ccc(-n2c(CCc3ccccc3)nnc2SCC(=O)NCc2ccccc2)cc1	i
CN(c1cccc(NC(=O)c2ccc(C(C)(C)C)cc2)c1)S(C)(=O)=O	i
O=S(=O)(Nc1ccccc1F)c1ccccc1F	1%
CC(C)(O)C#Cc1ccc(C(=O)NCc2ccccc2)s1	i
C=CCN1C(=O)C(O)(CC(=O)c2ccc(C)cc2C)c2ccccc21 (stereo not given)	15µg/mL*
CC(C)C(=O)NC(c1ccccc1)c1cc([N+](=O)[O-])c2cccnc2c1O (stereo not given)	i
O=C(CNC(=O)c1ccc(F)cc1)NC1=NCCS1	i
COc1ccc(S(=O)(=O)NCc2ccccc2)cc1N(C)S(=O)(=O)c1ccc(Cl)cc1	0%
COc1ccc(S(=O)(=O)Nc2cccc([N+](=O)[O-])c2)cc1OC	i
COc1ccccc1C(=O)Oc1ccc2c(=O)c(-c3ccccc3OC)c(C)oc2c1	i
Cc1c(NC(=S)Nc2ccccc2C(F)(F)F)c(=O)n(-c2ccccc2)n1C	i
Cc1ccc(CNC(=O)CCc2ccc(S(=O)(=O)NCC(C)C)cc2)cc1	8%
Cc1ccc(-c2nn(-c3cc(N4CCNCC4)ccc3[N+](=O)[O-])c(=O)c3ccccc23)cc1C	i
C=CCNc1oc(COc2cccc(Cl)c2)nc1C#N	i
O=C(Cc1ccc(Cl)cc1)NCCN1CCOCC1	i
CC1=C(C(=O)N2CCCCC2)C(c2ccc(C)c([N+](=O)[O-])c2)C2=C(CC(C)(C)CC2=O)N1 (stereo not given)	i
Nc1nc(SCC(=O)N2CCCc3ccccc32)[nH]c(=O)c1-c1ccccc1	i
CCn1ncc(Br)c1C(=O)Nc1sc2c(c1C(=O)OC)CCC2	i
COCCSc1ccccc1C(=O)Nc1nnc(C)s1	i
O=c1ccnc(SCc2ccc(Br)cc2)[nH]1	i
N#CCC(=O)N1CCN(c2ccccc2)CC1	i
COc1cccc(-n2c(SCC(N)=O)nc3c(c2=O)C2(CCCCC2)Cc2ccccc2-3)c1	i
CCC(=O)N1CCN(c2ccc([N+](=O)[O-])c(N3CCOCC3)c2)CC1	i
CC(C)Cn1cc(I)c(=O)n(CC(C)C)c1=O	2%
Cc1ccc(S(=O)(=O)N2CCCC2C(=O)NCc2ccccc2Cl)cc1 (stereo not given)	3%
O=C(Nn1cnnc1)c1ccccc1-c1ccccc1	i
Cc1ccccc1CSCCNC(=O)CN(c1ccccc1F)S(C)(=O)=O	i
O=S(=O)(Nc1ccc(O)c(Cl)c1)c1cccc2ccccc12	i
COc1ccc(N2CCN(C(=O)Cc3nn(C)c(=O)c4ccccc34)CC2)cc1	i
O=C(Nc1ccccc1C(=O)Nc1ccccn1)c1ccccc1F	4%
C#Cc1cccc(NC(=O)Cc2ccccc2)c1	i
C=CCn1c(CSc2nc3ccccc3s2)nnc1SCC(=O)Nc1ccc(C(=O)OCC)cc1	i
Cc1ccc(-c2nc(N)n(C(=O)c3ccccc3Cl)n2)cc1	i

An excerpt; the hit share may differ from the screen's.
